D2 PAM = human D2 receptor positive allosteric modulation. DiscoveRx D2 beta-arrestin cells, luminescence, 90 min; 100% = 57 uM dopamine signal. AID 624464. P14416. actives 0.23% (n = 360,000). potentiation, % (no concentration beside the values); active = potentiation of 50% or more; inconclusive = 30% to 50%; inactive = 30% or less;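 note: compound concentration not given in the record; tested on top of an EC20 dose of dopamine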
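PathHunter D2 cells, attached overnight at 37 deg C, received compound in DMSO plus dopamine at EC20 (50 nM final) for 90 min at 37 deg C. Beta-arrestin recruitment was read as luminescence after 1 h with detection reagent at ambient temperature.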
Sfp PPTase inh = inhibitors of Bacillus subtilis Sfp phosphopantetheinyl transferase | AID 1490 | actives 3.5% (n = 310,000) | Q9F4F7 | Potency, µM, without a hit: max response, negative = inhibition, usual class: inhibitors | Biochemical Sfp PPTase activity, qHTS; active = well fitted inhibition curve with a large enough effect; inconclusive = small, poorly fitted or top-dose-only effect, or another doubt; inactive = no such curve, though single readings can be large or run the other way;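 note: the enzyme is Sfp with the accession as filed and its product quenches rhodamine fluorescence; potency is the fitted concentration of half-maximal effect; 0% = enzyme reaction without inhibitor and -100% = no enzyme wells; top concentration of the series not given in the record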
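Step 1, compound plus 15 nM Sfp-PPTase, 15 min, room temperature. Step 2, add rhodamine-CoA (5 uM) and BHQ-2-YbbR (12.5 uM). Step 3, read 525/598 nm fluorescence at 0 and 30 min.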
gsp antag = antagonists of gsp mutant (McCune-Albright syndrome) | gsp-mutant cells, cAMP HTRF, 30 min; control for the full effect not named in the record | Potency, µM (top dose mostly 76.9 µM), without a hit: at the highest dose activity change, negative = inhibition, hits mostly inhibitors | actives 0.4% (n = 340,000) | AID 624288; active = falling curve of any shape with a large fitted effect; inconclusive = falling curve, mostly with a smaller effect; inactive = flat or rising curve; cell line not stated here;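 note: intracellular cAMP measured with PDE inhibitor Ro 20-1724 present during compound exposure; potency is the fitted concentration of half-maximal effect; % is set by controls: 0 for no effect and ±100 for the full control effect; nearly all actives have a fitted effect of over 65% in size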
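Cells in G418 medium, seeded 16-24 h, 37C; buffer exchange to DPBS + 1 mM CaCl2, 0.5 mM MgCl2, 0.05% BSA; cpds in DMSO + […] (300 uM stock), 30 min 37C; HTRF cAMP detection.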
Menin-MLL FL inh = menin-MLL binding inhibition, fluorescein peptide; Fluorescence polarization, fluorescein-MLL peptide displacement from menin; FP activity change, % at 61.4 µM; 290,000 tested, under 10 active; AID 1766; inconclusive = falling polarisation curve, or a change in total fluorescence; inactive = total fluorescence flat and polarisation flat or rising; no compound was filed as active; the % refers to the polarisation; negative = inhibition;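 note: % of control where 0% means no effect; inhibitors lower the polarisation; unlabelled MLL peptide was the positive control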
gsp agonist = gsp mutant agonism; gsp mutant cells, cAMP HTRF, 30 min; control for the full effect not named in the record; Potency, µM (highest dose often 76.9 µM), for inactives: top-dose activation (cAMP increase), actives largely listed as activators; actives 0.13% (n = 340,000); AID 624287; active = well fitted activation curve with a large enough effect; inconclusive = small, poorly fitted or top-dose-only effect, or another doubt; inactive = no such curve, though single readings can be large or run the other way; cell line not stated here;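 note: phosphodiesterase inhibitor Ro 20-1724 added with compounds to block cAMP breakdown; potency is the fitted concentration of half-maximal effect; nearly all actives have a fitted effect of over 60% in size; about a fifth of the inactives were tested at one dose only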
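Cells in DMEM/10% FBS with G418 were pretreated with compounds in DMSO plus […] (300 uM stock) for 30 min at 37C. cAMP was measured by HTRF (cAMP-d2 plus anti-cAMP antibody-K) after 30 min at room temperature.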
ClpP mod = qHTS Assay for Activators of ClpP. purified B. subtilis ClpP, FRET peptide cleavage, 20 min. Potency, µM (doses to about 57.5 µM), for inactives: at the highest dose activity change, negative = active. actives 1.9% (n = 340,000). AID 651965, 2013; active = well fitted falling curve with a large enough effect; inconclusive = small, poorly fitted or top-dose-only effect; inactive = no such curve, though single readings can be large or run the other way; note: potency is the fitted concentration of half-maximal effect; the source files actives as falling curves though it sought activators and does not explain the sign; nearly all actives have a fitted effect of over 65% in size; many hits overshoot -100%
Target sequence (P80244 whole entry, looked up): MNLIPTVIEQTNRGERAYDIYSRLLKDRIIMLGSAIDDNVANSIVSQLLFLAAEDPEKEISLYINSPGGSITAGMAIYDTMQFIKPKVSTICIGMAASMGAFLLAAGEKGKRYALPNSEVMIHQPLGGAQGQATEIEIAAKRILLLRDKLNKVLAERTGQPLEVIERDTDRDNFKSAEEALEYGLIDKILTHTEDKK
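Purified B. subtilis ClpP, 10 microg/mL final in Tris/HCl pH8 with KCl, BSA, glycerol and Tween-20, cleaved an Abz/nitrotyrosine-quenched decapeptide. Fluorescence (ex 320, em 430) was read at 0 and 20 min at room temperature. Delta was normalized to 5.8 microM ADEP and DMSO/no-enzyme controls.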
TRPV1 PAM = enhances activation of the human vanilloid receptor TRPV1 | Q8NER1 | potentiation, % at 8.33 µM | TRPV1-expressing cells, Fluo-8 calcium influx, capsaicin EC20 potentiation; host cell line not named in the record; control for the full effect not named in the record | actives 0.02% (n = 320,000); active means potentiation above 80%; inconclusive means 30% to 80%; inactive means below 30%; note: 0% is about no effect
Target sequence (Q8NER1 whole entry, looked up): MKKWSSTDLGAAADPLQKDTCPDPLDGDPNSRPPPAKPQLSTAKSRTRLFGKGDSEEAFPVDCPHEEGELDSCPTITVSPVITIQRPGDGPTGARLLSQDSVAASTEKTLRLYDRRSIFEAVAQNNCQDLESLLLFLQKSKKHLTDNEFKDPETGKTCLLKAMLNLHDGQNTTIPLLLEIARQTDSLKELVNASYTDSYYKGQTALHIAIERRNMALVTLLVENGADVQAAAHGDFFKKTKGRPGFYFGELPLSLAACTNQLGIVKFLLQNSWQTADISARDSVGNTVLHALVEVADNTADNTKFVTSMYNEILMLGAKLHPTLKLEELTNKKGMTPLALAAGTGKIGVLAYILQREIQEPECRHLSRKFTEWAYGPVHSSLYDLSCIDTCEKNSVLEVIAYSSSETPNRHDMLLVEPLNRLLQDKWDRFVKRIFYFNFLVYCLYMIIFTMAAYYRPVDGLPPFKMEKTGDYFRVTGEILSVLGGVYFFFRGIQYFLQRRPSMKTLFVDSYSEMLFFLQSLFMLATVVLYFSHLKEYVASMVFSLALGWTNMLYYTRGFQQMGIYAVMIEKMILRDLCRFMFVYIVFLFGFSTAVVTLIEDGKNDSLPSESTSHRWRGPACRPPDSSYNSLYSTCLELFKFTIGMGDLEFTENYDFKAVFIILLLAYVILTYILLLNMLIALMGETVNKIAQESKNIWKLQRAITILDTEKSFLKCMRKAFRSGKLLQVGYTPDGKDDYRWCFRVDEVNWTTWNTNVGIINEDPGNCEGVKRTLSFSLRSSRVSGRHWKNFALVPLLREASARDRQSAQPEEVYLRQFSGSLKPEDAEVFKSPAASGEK
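Cells expressing TRPV1 were dye-loaded with Fluo-8 and read kinetically: 10 s baseline, 3 min after compound (agonist portion), then 2 min after EC20 capsaicin (allosteric enhancer portion). Calcium-bound dye fluorescence at 480/520 nm.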
Starred values were filed as active, the others as inactive; ? = inconclusive; . = not tested or not shown; [ ] = another dose, or the depositor's remark.

SMILES | D2 PAM | Sfp PPTase inh | gsp antag | Menin-MLL FL inh | gsp agonist | ClpP mod | TRPV1 PAM
COc1cc(NC(=O)CN(C)CCOc2ccccc2)c(C)cc1[N+](=O)[O-] | -1 | 3% | -10% | 2.5 | -28% | 2.1% | -12
COc1ccc(S(=O)(=O)NCCN2CCOCC2)cc1Br | -20 | 0% | 7% | 4.0 | -4% | -2.6% | 1
CC1(C)CC(=O)C(C=NCCN2CCN(C3CC(=O)N(c4ccc(F)cc4)C3=O)CC2)=C(O)C1 (stereo unspecified) | -23 | 17% | -11% | 0.2 | 20%[15.4 µM] | -12% | -1
O=C(O)/C=C/C(=O)NNC(=O)c1ccccc1Br | -5 | 56µM* | 10% | 0.0 | -7% | -2.1% | -2
CC1Cc2cc(S(=O)(=O)NCCc3ccccc3)ccc2N1C(=O)C1CC1 (stereo unspecified) | -5 | 9% | ? | 4.0 | ? | -1.8% | -5
COc1cccc(NC(=O)CN2C(=O)C3(OCCCO3)c3ccccc32)c1 | -11 | 12% | 1% | 0.7 | -9% | -0.1% | -6
COC(=O)CCCC(=O)NCC1(N(C)Cc2ccccc2)Cc2ccccc2C1 | -13 | 5% | -3% | 0.2 | -11%[15.4 µM] | 0.2% | 5
CCC(C)(C)C1CCC2(CC1)NC(=O)N(CC(=O)NCCOc1ccccc1)C2=O (stereo unspecified) | 0 | . | 1% | . | -1% | 0.1% | -4
CCS(=O)(=O)NCc1csc(C)n1 | -10 | 2% | 1% | -0.9 | -40%[inhibitor] | -0.9% | ?
O=C(N/N=C/c1ccncc1)c1ccc(COc2cccc3cccnc23)cc1 | 5 | 22% | ? | 5.3 | ? | -14% | -17
CCOc1ccc(-c2csc(NC(=O)c3cccc(N4C(=O)CCC4=O)c3)n2)cc1 | 2 | 1% | -8% | 2.1 | -1%[15.4 µM] | . | 24
CCN(Cc1ccc(OC)c(F)c1)C(=O)c1cc2ccccc2o1 | -5 | -7% | -10% | 5.8 | 7% | . | -19
C[N+]1(CCN2C(=O)C3CC=C(Cl)CC3C2=O)CCOCC1 (stereo unspecified) | 3 | -3% | -4% | 0.2 | -25% | -0.5% | -17
O=C1NC(c2ccc3ccccc3c2)Nc2ccccc21 (stereo unspecified) | -7 | . | . | . | -18% | 4.0% | .
Cc1c(C2C(C#N)=C(N)N(c3cccc([N+](=O)[O-])c3)C3=C2C(=O)CCC3)cnn1C (stereo unspecified) | . | 8% | . | -3.5 | . | . | -11
N#Cc1c(NC(=O)CCN2C(=O)c3ccccc3C2=O)oc(-c2ccccc2)c1-c1ccccc1 | -8 | 8% | -6% | 2.1 | 1% | -5.2% | 7
COC(=O)CSc1nnnn1-c1cccc2ccccc12 | -7 | 10% | -4% | 3.3 | -25% | -0.5% | -12
O=C(CSc1ccc(-c2ccccn2)nn1)c1ccc([N+](=O)[O-])cc1 | 6 | 32µM* | -3% | 0.8 | 3%[15.4 µM] | . | -46
CCN(C(=O)COc1ncnc2ccccc12)C1CCCCC1 | -5 | . | 5% | . | -7%[15.4 µM] | -18% | .
O=C(c1ccc(F)cc1)N1CCN(C2CCC(c3ccccc3)CC2)CC1 (stereo unspecified) | -15 | -18% | 4% | -4.3 | -19% | 0.8% | -6
CCCC(=O)Nc1ccccc1NC(=O)c1ccc(OC)cc1 | -5 | 18% | 9% | -0.5 | 8%[15.4 µM] | . | 0
CN1CCN(S(=O)(=O)CC2(C)C3CCC2(C)C(=O)C3Br)CC1 (stereo unspecified) | -1 | 23% | 12% | 0.7 | -2%[15.4 µM] | . | 15
COc1ccc2oc(C(=O)Nc3ccc(N4CCOCC4)cc3)c(C)c2c1 | 25 | . | -13% | . | -8%[15.4 µM] | -20% | 8
Cc1cc(=O)n(CCC(=O)O)c2ccccc12 | -9 | -8% | -1% | 2.6 | 1% | -12% | 7
Cc1ccccc1OCC(O)Cn1c(Br)nc2c1c(=O)n(C)c(=O)n2C (stereo unspecified) | -10 | 14% | -6% | 3.0 | 21% | 2.0% | 9
Clc1ccccc1N/N=C/c1ccc2c(c1)OCO2 | -6 | -25% | 1% | 0.3 | -25%[15.4 µM] | 1.0% | -16
CCOC(=O)c1sc2nc(C)nc(NCCc3ccc(S(N)(=O)=O)cc3)c2c1C | 0 | 7% | ? | -2.9 | ? | . | 12
O=C(Nc1ccc(-c2nnc(-c3ccccc3)o2)cc1)C1CCCO1 (stereo unspecified) | -1 | 0% | -5% | -2.4 | 20% | 13µM* | 28
Cc1cc(C)n(-c2cccc(C(=O)O)c2)n1 | -3 | 6% | -6% | -1.2 | -2%[15.4 µM] | ? | -3
COc1cc(OC)c(-n2cc(-c3ccc(Cl)cc3)[nH]c2=O)cc1Cl | -25 | -26% | 8% | 0.3 | -1% | -2.5% | 21
O=C1Nc2ccccc2OC1CC(=O)N1CCN(c2cccc(C(F)(F)F)c2)CC1 (stereo unspecified) | -23 | -16% | 1% | 4.3 | 2% | 0.5% | -1
O=C(OCn1nnc2ccccc2c1=O)c1ccc(O)cc1 | -5 | 14% | -4% | -5.7 | 10%[15.4 µM] | -0.6% | 7
COc1cccc2c1OC1(C)CC2/C(=C(\C)O)C(=O)N1 (stereo unspecified) | -6 | 1% | 11% | 3.1 | ? | -0.9% | 1
CCNC(=S)NS(=O)(=O)c1ccc(C)cc1 | -24 | ? | 7% | 2.0 | 12% | -1.1% | -4
CC1CCOC(c2coc3ccccc3c2=O)O1 (stereo unspecified) | 2 | -12% | 6% | 8.4 | 1% | -2.1% | -12
CCCn1nc(NS(=O)(=O)c2ccc(F)cc2)c2cc3ccccc3nc21 | -15 | 31%[activator] | -14% | . | -9% | 1.5% | 18

3 compounds from above, ordered by their value in Menin-MLL FL inh, high to low:
SMILES	D2 PAM	Sfp PPTase inh	Menin-MLL FL inh	gsp agonist
CC1CCOC(c2coc3ccccc3c2=O)O1 (stereo unspecified)	2	-12%	8.4	1%
COc1cccc2c1OC1(C)CC2/C(=C(\C)O)C(=O)N1 (stereo unspecified)	-6	1%	3.1	?
CCOC(=O)c1sc2nc(C)nc(NCCc3ccc(S(N)(=O)=O)cc3)c2c1C	0	7%	-2.9	?

Continued:
SMILES | D2 PAM | Sfp PPTase inh | gsp antag | Menin-MLL FL inh | gsp agonist | ClpP mod | TRPV1 PAM
N#C/C(=C\c1ccc(C(=O)O)cc1)S(=O)(=O)c1cc(Br)ccc1Br | 4 | 19% | -14% | 8.1 | 12%[15.4 µM] | . | 10
O=S(=O)(NC1CC1)c1ccccc1 | 19 | 16% | 7% | 2.3 | -39%[inhibitor] | 2.1% | 3
O=C(COc1ccc(Br)cc1)Nc1ccc2oc(=O)ccc2c1 | -1 | -14% | ? | . | 16% | -16% | -7
CCC(C(=O)O)N1C(=O)/C(=C/c2cccn2C)SC1=S (stereo unspecified) | -8 | 19% | ? | ? | -20% | 1.5% | 12
NC(=O)C1CC(=O)N(CCc2ccc(F)cc2)C1 (stereo unspecified) | 1 | -12% | 5% | -1.3 | -15% | -0.7% | 14
CC(C)(C)n1ncc2c(=O)n(CC(=O)c3ccccc3)cnc21 | 23 | 1% | -16% | 4.0 | 0% | -0.2% | 3
CCc1ncc(/C=C2\C(=O)Nc3ccccc32)[nH]1 | -10 | 1% | ? | 8.3 | 40% | . | 12
O=C(/C=C/c1ccccc1[N+](=O)[O-])Nc1cccnc1 | -21 | -18% | 7% | 3.5 | 26% | -2.4% | 9
CCc1ccccc1NC(=O)CN1CCN(C(=O)CN2C(=O)NC3(CCCCC3C)C2=O)CC1 (stereo unspecified) | 2 | . | -4% | . | -14%[15.4 µM] | . | -6
Cc1cccc(C)c1NC(=S)NC(=O)CCc1ccccc1 | 2 | 5% | -3% | 0.4 | -10% | -1.4% | 1
CC(C)c1ccc(Cc2nnc(NCCCO)[nH]c2=O)cc1 | -2 | 8% | 11% | 1.1 | -23% | 1.0% | -13
CCOc1ccc(C2=C(C=C(C#N)C#N)C(c3ccccc3)c3ccccc3O2)cc1 (stereo unspecified) | -10 | -6% | -13% | 1.1 | 7%[15.4 µM] | -0.6% | 8
COc1cccc(/C=N/n2c(C3CCCCC3)n[nH]c2=S)c1O | -1 | 79µM* | -25% | 11 | ? | -1.1% | -3
O=[N+]([O-])c1ccc2[nH]cc(S(=O)(=O)N3CCN(c4cccc(Cl)c4)CC3)c2c1 | 1 | 20% | -23% | -0.8 | -29% | -1.3% | -2
COc1ccc(NC(=S)Nc2cc(C)[nH]n2)cc1Cl | -8 | ? | 3% | 3.3 | -8% | . | 10
Cn1nc(C(C)(C)C)cc1NC(=O)Nc1ccc(Cl)cc1 | -7 | 7% | -5% | 4.3 | -3%[15.4 µM] | . | -2
Cc1ccc(C(=O)N2CCCCC2)cc1S(=O)(=O)N1CCCCCC1 | -6 | 3% | -4% | . | -35% | -0.3% | -21
CC(Sc1nnc(-c2ccco2)n1C)C(=O)Nc1nccs1 (stereo unspecified) | -2 | . | 4% | . | -26%[15.4 µM] | . | 26
Cc1ccc(CSC2=NCCN2S(=O)(=O)c2ccc(F)cc2)cc1 | -7 | -7% | -10% | . | -1% | -2.1% | -21
COCCCN(C(=O)Nc1cccc(Cl)c1)C(C)c1ccccn1 (stereo unspecified) | -22 | -5% | -11% | -1.6 | -23% | -0.1% | -8
CC(C)(C)c1nc2scc(-c3ccc(Br)cc3)c2c(=O)o1 | 1 | 4% | -8% | 2.3 | 0%[15.4 µM] | . | 12
Cc1cccc2cc(CN(Cc3cccs3)C(=S)NCc3ccco3)c(=O)[nH]c12 | -13 | -7% | -16% | 14 | ? | -8.6% | 7
COc1ccc(C)cc1NC(=O)CSc1nnc(COc2ccc(C)cc2)n1Cc1ccco1 | -24 | 7% | -26% | 1.2 | -52%[inhibitor] | -2.6% | 8
O=C(c1ccc(CN2CCOCC2)cc1)N1CCN(c2cccc(Cl)c2)CC1 | -11 | 3% | 4% | 2.2 | ? | -17% | -21
O=C(/C=C/c1ccc(Cl)cc1Cl)NCc1ccco1 | -18 | -1% | -33% | 6.7 | -22% | 1.0% | -12

Source: PubChem (National Center for Advancing Translational Sciences (NCATS))
